Rango dissoc inh: inhibitors of RanGTP-induced Rango-importin beta complex dissociation; O95149+P62826; Biochemical FRET Rango-importin beta, RanGTP-induced dissociation; Potency, µM (top dose mostly 46.1 µM), for inactives: at the highest dose activity change, negative = inhibition; hit rate 0.071% among 340,000; AID 540253; active means falling FRET ratio curve, often poorly fitted, with flat reads before Ran was added; inconclusive means other falling curves, or compound fluorescence or quenching; inactive means flat or rising ratio curve;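 further: potency means the concentration at half of the fitted maximal effect; % of control where 0% means no effect; nearly all actives have a fitted effect of over 45% in size; -100% = wells without RanGTP and RCC1; the record marks most hits as doubtful in a second field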
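FRET read at 45 min, room temperature: inhibitors block the CFP/YFP signal rise when RanGTP (0.6 uM Ran, 2 mM GTP, 0.2 uM RCC1) frees Rango (0.1 uM) from importin beta (0.25 uM). Pre-read after 5 min compound exposure flags interference.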
GLA inh pH 4.5: alpha-galactosidase A (human) inhibition, pH 4.5. 230,000 tested, under 10 active. activity change, negative = inhibition, % at 105 µM. purified enzyme, 4-MU-alpha-Gal fluorescence, pH 4.5. P06280; inconclusive = small, poorly fitted or top-dose-only inhibition, or a rising curve; inactive = flat fitted curve, though single readings scatter; no compound was filed as active;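 further: 0% = full activity with enzyme and -100% = basal without enzyme; dose as in the result columns while the protocol names 77 µM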
miR-21 FLuc: miR-21 reporter, rising signal. Potency, µM (series often up to 38.3 µM), for inactives: top-dose reporter change, positive = more light. HeLa miR-21 FLuc reporter, luciferase, 48 h. 340,000 tested, under 10 active; active = well fitted rising curve with a large enough effect; inconclusive = small, poorly fitted or top-dose-only effect; inactive = no such curve, though single readings can be large or run the other way;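 further: % of control where 0% means no effect; miR-21 action dims this reporter so a rising signal means less miR-21 action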
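Compounds were titrated across several concentrations (up to approximately 40 uM) and incubated 48 hours with HeLa miR-21-FLuc reporter cells (miR-21 target sequence downstream of FLuc, endogenous miR-21). Readout was firefly luciferase luminescence after lytic detection reagent.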
Rango complex inh: prevents formation of the Rango-importin beta complex; hit rate 0.031% among 340,000; Potency, µM (highest dose often 92.2 µM), for inactives: at the top dose inhibition of complex formation; Rango CFP/YFP FRET sensor + importin beta, 45 min; active = rising FRET ratio curve, often small or poorly fitted; inconclusive = mostly compound fluorescence or quenching in the first reads; inactive = flat curves in all reads;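 further: potency means the concentration at half of the fitted maximal effect; 0% = DMSO wells and 100% = buffer wells lacking importin beta; nearly all actives have a fitted effect of over 15% in size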
Target sequence (Q14974 whole entry, looked up): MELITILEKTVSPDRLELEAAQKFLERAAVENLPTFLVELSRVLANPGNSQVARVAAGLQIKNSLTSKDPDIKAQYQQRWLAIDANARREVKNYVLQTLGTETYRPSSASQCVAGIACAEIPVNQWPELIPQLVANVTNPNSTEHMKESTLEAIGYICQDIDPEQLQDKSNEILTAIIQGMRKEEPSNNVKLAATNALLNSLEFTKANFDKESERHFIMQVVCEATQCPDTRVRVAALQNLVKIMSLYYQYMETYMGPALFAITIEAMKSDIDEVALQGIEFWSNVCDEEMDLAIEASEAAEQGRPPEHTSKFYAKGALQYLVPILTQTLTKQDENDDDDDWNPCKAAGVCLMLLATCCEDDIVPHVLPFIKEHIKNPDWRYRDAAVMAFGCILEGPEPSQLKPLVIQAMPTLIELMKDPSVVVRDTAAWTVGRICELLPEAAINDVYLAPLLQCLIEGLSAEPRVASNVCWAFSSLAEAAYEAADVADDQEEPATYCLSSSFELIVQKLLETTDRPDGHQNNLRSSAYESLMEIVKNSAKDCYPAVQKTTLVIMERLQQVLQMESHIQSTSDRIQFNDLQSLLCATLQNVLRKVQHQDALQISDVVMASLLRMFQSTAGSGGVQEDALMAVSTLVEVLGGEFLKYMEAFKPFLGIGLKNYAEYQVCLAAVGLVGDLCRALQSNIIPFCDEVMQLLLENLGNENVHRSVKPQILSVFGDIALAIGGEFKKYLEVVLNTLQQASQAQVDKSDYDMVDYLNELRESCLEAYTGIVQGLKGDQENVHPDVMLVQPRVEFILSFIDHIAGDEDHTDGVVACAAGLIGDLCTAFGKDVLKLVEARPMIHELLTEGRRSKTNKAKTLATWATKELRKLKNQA
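FRET biosensor (snurportin 1 IBB flanked by EYFP and cerulean), 50 nM, with compound 5 min, then 0.125 microM importin beta in PBS, 1 mM DTT, 0.02% Tween-20, 0.1% BSA. CFP/YFP ratio read after 45 min at room temperature; pre-read flags interference.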
Starred values were filed as active, the others as inactive; u = inconclusive; x = not tested or not shown; & = joins results of further samples. Only part of the results is shown; the hit share may differ from the screen's.

SMILES	Rango dissoc inh	GLA inh pH 4.5	miR-21 FLuc	Rango complex inh
COc1ccc(C)cc1NC(=O)NCCC1=CCCCC1	0%	3	-12%	4.7%
C/C(=N/N1CCN(c2ccccc2)CC1)c1cccc([N+](=O)[O-])c1	-12%	-14	-25%	2.8%
CCCCN(CCCC)CCNC(=O)CNC(=O)c1cccs1	-2%	-5	-1%	-2.5%
O=C(O)C(C(=O)O)=C1C2CC3CC(C2)CC1C3	-10%	-3	-1%	-1.9%
Cc1ccc(C(=O)SC2=NCCS2)cc1	-7%	3	-4%	0.5%
Cc1cc(C)nc(/N=C2\NC(=O)CC3C(=O)NCCN23)n1 (stereo unspecified)	-8%	2	-4%	0.6%
CCCOc1ccc(C(=O)N(Cc2cccs2)C2CCS(=O)(=O)C2)cc1 (stereo unspecified)	3%	x	4%&-2%	3.4%
S=c1[nH]nc(-c2cccs2)n1/N=C/c1cn(-c2ccccc2)nc1-c1ccccc1	5%	-7	-3%	-0.3%
COc1ccc(/C=C2\SC(=S)N(NC(=O)c3csc4c3CCCC4)C2=O)cc1	-16%	-4	-3%	5.2%
Cc1nn(S(=O)(=O)c2ccc(C(C)C)cc2)c(C)c1S(=O)(=O)N1CCOCC1	9%	x	-1%	1.1%
O=C(c1ccc(Cl)cc1)N1CCCCC(Cl)C1=O (stereo unspecified)	42%	-3	5%	2.0%
COc1ccc(-c2nc(C(=O)O)cs2)cc1OC	-5%	-5	-14%	1.2%
O=C(NCCCN1CCOCC1)c1cc2c([nH]c3ccccc32)c(-c2cccc(Br)c2)n1	8%	x	22%	0.6%
CC(=O)C1=C(O)C(=O)N(c2ccc(Br)cn2)C1c1ccc(Br)cc1 (stereo unspecified)	-2%	-1	-5%	4.2%
C1CCc2nnc(-c3nnc4n3CCCCC4)n2CC1	7%	0	-2%	2.4%
CCOC(=O)C1=C(N)n2c(s/c(=C\c3cccs3)c2=O)=C(C(=O)OCC)C1c1cccs1 (stereo unspecified)	u	-2	16%	u
CCCCCn1c(N2CCCC2)nc2c1c(=O)n(C)c(=O)n2C	-5%	x	5%	4.2%
CSc1ccccc1OCc1cc(C(=O)N(C)CCn2nc(C)cc2C)no1	-4%	x	-13%	-2.4%
Cc1ccccc1C(=O)NC(=S)Nc1ccc2[nH]c(=O)[nH]c2c1	-1%	-9	-8%	0.8%
CC(=O)c1ccc(-n2c(CCC(=O)O)ccc2-c2ccc(Cl)cc2)cc1	-4%	x	-2%	-0.1%
CCCCN(CC)S(=O)(=O)c1ccc2c(c1)n(C)c(=O)c(=O)n2C	-3%	7	1%	-5.3%
COc1ccc(-c2cc(C(F)(F)F)nc(SCC(=O)Nc3ccc4c(c3)OCO4)n2)cc1OC	-3%	8	-19%	1.4%
COc1ccc2cc(C(=O)C3CCCN(C(=O)CCc4ccccn4)C3)ccc2c1 (stereo unspecified)	0%	13	-18%	-0.8%
CC(=O)Nc1ccc(SCc2csc(C)n2)cc1	13%	x	-25%	2.4%
CC(C)Nc1nnc(Sc2ccc(Cl)cc2[N+](=O)[O-])s1	-11%	-3	-23%	-1.0%

Next part; the last 4 above are carried over.
SMILES	Rango dissoc inh	GLA inh pH 4.5	miR-21 FLuc	Rango complex inh
COc1ccc(-c2cc(C(F)(F)F)nc(SCC(=O)Nc3ccc4c(c3)OCO4)n2)cc1OC	-3%	8	-19%	1.4%
COc1ccc2cc(C(=O)C3CCCN(C(=O)CCc4ccccn4)C3)ccc2c1 (stereo unspecified)	0%	13	-18%	-0.8%
CC(=O)Nc1ccc(SCc2csc(C)n2)cc1	13%	x	-25%	2.4%
CC(C)Nc1nnc(Sc2ccc(Cl)cc2[N+](=O)[O-])s1	-11%	-3	-23%	-1.0%
Cc1ccc(-n2c(O)c(/C=N/n3cnnc3)c3ccccc3c2=O)cc1	u	5&-3	-6%&-2%	u
CCC1C(=O)N=C(SCC(=O)Nc2cccc3ccccc23)NC1=O (stereo unspecified)	-4%	-9	0%	-6.0%
COc1ccc2c(c1)c(CC(=O)Nc1ccccc1OC)c(C)n2C(=O)c1ccc(Cl)cc1	1%	2	18%	0.7%
O=[N+]([O-])c1ccc(N2CCN(C(=S)Nc3ccccc3)CC2)cc1	-13%	-2	0%	-1.4%
Cc1c(C#N)c(N)nc2c3c(sc12)NC(=O)CC3c1ccc(F)cc1 (stereo unspecified)	-1%	3	-20%	-0.4%
CC(=O)c1ccc(NC(=O)Cn2nc(C)cc2C)cc1	-5%	6	-2%	-0.3%
CCOC(=O)Cn1c(-c2ccccc2)nc2ccccc2c1=O	-10%	-5	-4%	8.2%
Cc1[nH]c2ccccc2c1-c1nc2ccccc2[nH]1	-18%	5	-25%	-2.6%
CCCCC(c1nnnn1CCOC)N1CCN(C)CC1 (stereo unspecified)	-10%	0	-4%	-0.6%
C/C(=N/Nc1ncc(Br)cn1)c1ccc(Br)cc1	-4%	x	-17%	0.6%
C=CCn1cnc2sc(C(=O)Nc3ccccc3OC)c(C)c2c1=O	0%	12	-7%	-3.0%
CCOC(=O)COc1ccc([N+](=O)[O-])cc1	-2%	-1	-1%	0.0%
CCCOc1ccc(C(=O)NCCN2CCOCC2)cc1	-14%	x	-4%	-0.5%
O=C(/C=C/c1cccc(F)c1)N1CCN(c2ncccn2)CC1	-7%	-3	-29%	-1.4%
COc1ccccc1C(=O)Nc1ccc2c3c(cccc13)CC2	6%	1	-56%	-1.0%
CCn1c(SCC(=O)N2CCCC2=O)nnc1-c1cccs1	5%	x	x	5.5%
N#C/C(=C\c1ccccc1C(F)(F)F)C(=O)Nc1ccccc1F	-15%	-2	-3%	-4.7%
CN1CCN(Cc2nc3ccccc3c(=O)n2Cc2nc(-c3ccc([N+](=O)[O-])cc3)cs2)CC1	1%	-1	27%	-0.6%
Cc1ccc(NC(=O)COC(=O)c2cccc3c(=O)c(C)c(-c4ccccc4)oc23)cc1	8%	9	-6%	-0.2%
CC(C)c1ccc(NC(=O)CSc2nc(=O)n(CCCN3CCOCC3)c3c2CCCC3)cc1	-3%	x	x	1.0%
CCOc1ccccc1Nc1nnc(SCC(=O)N(C)C2CCS(=O)(=O)C2)s1 (stereo unspecified)	0%	x	x	-1.0%
Cc1ccc(S(=O)(=O)Cn2nnnc2C(CC(C)C)N2CCN(c3ccccc3)CC2)cc1 (stereo unspecified)	16%	-8	-2%	-3.6%
Nc1ncnc2c1ncn2CCNCCc1ccccc1	0%	-12	-6%	1.1%
COc1cc2ccccc2cc1C(=O)OCc1nc2ccsc2c(=O)[nH]1	2%	x	x	0.6%
Nc1ncnc2c1ncn2[C@@H]1O[C@H](COP(=O)(O)O)[C@@H](O)[C@H]1O	6%	x	3%	1.7%

The list goes on.
SMILES	Rango dissoc inh	GLA inh pH 4.5	miR-21 FLuc	Rango complex inh
Cc1onc(-c2ccccc2Cl)c1C(=O)NC(=S)Nc1ccccc1C(N)=O	4%	5	1%	-4.2%
COc1ccc(CC(NC(C)=O)C(=O)NC2CCN(c3c(Cc4ccccc4)c(C)nc4ncnn34)CC2)c(OC)c1 (stereo unspecified)	15%	3	-3%	-0.6%
COc1ccc(N=Cc2c(O)[nH]c3ccccc23)cc1	u	5	-43%	u
COC(=O)C1=CN(Cc2ccc(OC)c(OC)c2)C=C(C(=O)OC)C1c1ccc(F)cc1	u	x	-1%	u
COCC(C)NC(=O)/C(=C/c1ccccc1)c1ccccc1 (stereo unspecified)	14%	-1	-6%	0.3%
CCOc1nc(C)ccc1-c1noc(-c2ccco2)n1	1%	-3	-41%	2.3%
CCOc1ccc(Br)cc1CNc1ccc2c(c1)OCCO2	1%	-6	-10%	2.3%
O=C(Cc1n[nH]c(=O)c2ccccc12)OCC(=O)c1ccc(OC(F)F)cc1OC(F)F	18%	x	x	u
Cc1ccccc1Nc1scc(-c2ccc(Br)cc2)[n+]1-c1ccccc1C	6%	-4	14%	-0.4%
COc1cc(NC(=O)COc2ccccc2C)ccc1NC(=O)c1ccco1	-5%	x	-11%	-0.3%
O=C(NCc1ccccc1)c1ccc(Cl)c(NC2=NC3CS(=O)(=O)CC3S2)c1 (stereo unspecified)	19%	x	0%	1.3%
Cn1c(N)c(C(=O)COC(=O)CCCc2c[nH]c3ccccc23)c(=O)n(C)c1=O	12%	5	-1%	-0.1%
CCCN(CC(=O)Nc1ccccc1C)C(=O)c1ccc2ccccc2n1	-4%	x	x	1.2%
CN1CC2(Cc3c1ccc1ccccc31)C(=O)OC(C)(C)OC2=O	u	u	-3%	u
Cc1ccc(N=Nc2c(O)n(CN3CCOCC3)c3ccccc23)cc1	-10%	-2	-58%	u
COC(=O)C(=Nc1ccccc1)/C(C(=O)C(=O)N(C)c1ccccc1)=C(\O)c1ccc(Cl)cc1	-13%	-2	-43%	u
COc1ccc(NC(=O)CSCC(=O)Nc2nnc(C3CC3)s2)cc1	30%	x	x	0.1%
CCOC(=O)C1(CCOc2ccccc2)CCN(Cc2cc(OC)cc(OC)c2)CC1	-15%	x	20%	-3.1%
COc1ccc(/C=N/Nc2nc(-c3cccc(S(=O)(=O)N4CCCC4)c3)cs2)cc1OC	-18%	-10	23%	4.4%
Cc1ccc(CN2CCN(/N=C/C=C/c3ccccc3[N+](=O)[O-])CC2)cc1	10%	-7	12%	2.2%
Cc1cc(NCc2ccccc2)nc(-c2ccccc2O)n1	-1%	-4	-12%	3.4%
O=C(Nc1ccccc1)N1CCCC1c1cccs1 (stereo unspecified)	10%	5	4%	-1.0%
CC(=O)c1ccc(Oc2ccc(C(=O)c3ccc(C)c(C)c3)cc2[N+](=O)[O-])cc1	18%	3	6%	0.0%
O=C(CSC1=NCCS1)N1CCCCCC1	-12%	-7	-22%	-0.9%
CS(=O)c1ccccc1COC(=O)Nc1cccc(Cl)c1 (stereo unspecified)	-10%	7	-24%	3.2%

A draw from above in order of molecular weight, high to low.
SMILES	Rango dissoc inh	GLA inh pH 4.5	miR-21 FLuc	Rango complex inh
CCCN(CC(=O)Nc1ccccc1C)C(=O)c1ccc2ccccc2n1	-4%	x	x	1.2%
CS(=O)c1ccccc1COC(=O)Nc1cccc(Cl)c1 (stereo unspecified)	-10%	7	-24%	3.2%
O=C(Nc1ccccc1)N1CCCC1c1cccs1 (stereo unspecified)	10%	5	4%	-1.0%

Following part.
SMILES	Rango dissoc inh	GLA inh pH 4.5	miR-21 FLuc	Rango complex inh
O=c1oc2cc(O[C@@H]3OC[C@@H](O)[C@H](O)[C@H]3O)ccc2c2ccccc12	-3%	x	-14%	-0.5%
COc1ccccc1NC(=O)C(C)N(C)CCOc1ccccc1 (stereo unspecified)	17%	x	1%	-1.7%
CC(=O)Nc1ccc(S(=O)(=O)NCC(=O)OCC(=O)NC(=O)c2cccn2C)cc1	0%	-4	0%	-1.5%
O=C(CCc1ccccc1)NC(c1cccs1)c1cc(Cl)c2cccnc2c1O (stereo unspecified)	2%	-2	u	-1.0%
COc1ccccc1Nc1nnc(Cc2ccccc2)c(=O)[nH]1	3%	5	3%	-0.7%
COc1cc(/C=C2/SC(=S)N(c3ccccc3)C2=O)ccc1Oc1nc(N2CCOCC2)nc(N2CCOCC2)n1	14%	-1	1%	4.9%
O=C(C1COc2ccccc2O1)N1CCN(Cc2ccc(Br)cc2F)CC1 (stereo unspecified)	-12%	x	12%	-3.5%
Cc1ccc(C)c(SCC(=O)Nc2cc(C)nn2-c2ccc(F)cc2)c1	x	-9	-4%	x
CCCOc1cccc(C(=O)N/N=C/c2coc3ccccc3c2=O)c1	22%	x	1%	1.4%
Fc1ccc(-n2nnc(-c3cnc4ccccc4c3)n2)cc1	10%	1	-39%	0.3%
CCCCOc1ccc(C(O)(CCC)CCN2CCOCC2)cc1 (stereo unspecified)	20%	-6	7%	0.7%
CCNc1nc(SCC(N)=O)nc2sc3c(c12)CCN(C)C3	u	x	2%	u
CSc1ccc(S(=O)(=O)NC2CC2)cc1	u	x	4%	4.2%
COc1cc2c(=O)n(CCC(=O)NCC3CCCO3)c(=O)n(CC(=O)Nc3ccc(C)cc3C)c2cc1OC (stereo unspecified)	1%	x	0%&-1%	7.3%

Compound activity from PubChem.
